Source: PubChem (several laboratories)
Beta cell apopt: blocks beta cell apoptosis; 300,000 tested, 0.8% active; AID 435005; INS-1E cytokine-induced death, ATP luminescence, 48 h; percent of positive-control rescue, neutral wells zero; protection from apoptosis, % (no concentration beside the values);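 active means all replicates at 75% or more, or half of them and the mean; inconclusive means half reach 75% but not the mean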;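 further: 0% = cytokine-treated negative control wells and 100% = positive control rescue; higher means more ATP so stronger rescue from cytokine killing; wells of about 40 µL received 100 nL stock; the first replicate is given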
UCH37 DUB inh: human UCH37 deubiquitinating enzyme inhibition; inhibition, % (test concentration not listed); purified proteasome/UCH37, Ub-AMC cleavage fluorescence; 330,000 tested, 0.33% active; AID 588478;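 active means mean of two replicates above 20%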;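 further: 0% = compound-free wells with enzyme and 100% = wells lacking proteasome; stock transfer was 100 nL into about 20 µL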
Target sequence (Q9Y5K5 whole entry, looked up): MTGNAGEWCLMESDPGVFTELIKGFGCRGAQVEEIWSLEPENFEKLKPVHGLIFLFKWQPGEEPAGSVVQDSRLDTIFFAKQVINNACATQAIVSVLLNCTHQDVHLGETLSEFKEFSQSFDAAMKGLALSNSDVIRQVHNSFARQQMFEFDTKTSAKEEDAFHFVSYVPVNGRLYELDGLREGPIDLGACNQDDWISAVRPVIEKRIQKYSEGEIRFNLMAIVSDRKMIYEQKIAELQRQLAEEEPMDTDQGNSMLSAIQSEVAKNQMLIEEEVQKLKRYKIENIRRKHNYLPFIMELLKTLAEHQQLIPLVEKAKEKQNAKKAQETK
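System: Proteasome-associated human UCH37 deubiquitinase; Input: 0.15 nM proteasome in added enzyme buffer; Also added: Ub-AMC substrate from 1 µM stock; Incubation: 30 min compound-proteasome preincubation then 25 min substrate reaction, room temperature; Detection: fluorescence, ex 355 nm, em 460 nm; Read-out: % inhibition of Ub-AMC cleavage fluorescence; Benchmarks: no-proteasome and no-compound wells.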
LANA-H2A inh: blocks KSHV LANA binding to histone H2A/H2B; inhibition, % (concentration not given with the values); 320,000 tested, 0.6% active; AID 2629; cell-free LANA-H2A/H2B peptide, fluorescence polarization; Q9QR71; in the data active means inhibition mostly above about 10%, no sharp cut-off; inactive means mostly below about 6.7%;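 further: stock transfer was 7.5 nL into about 10 µL; 0% = median of vehicle wells and 100% = median of positive control wells; one replicate is shown; the record names a cut of 25% in any replicate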
RanGTP-Imp inh: disruptors of Ran-importin-beta complex formation – biochemical, FRET, CFP-Ran, YFP-importin-beta, homogeneous, primary screen; cell-free CFP-Ran/YFP-importin-beta FRET ratio; inhibition, % (test concentration not listed); 300,000 tested, 1.1% active; AID 2216;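 active means most replicates above 15%; inconclusive means exactly half above 15%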;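 further: 0% = DMSO wells and 100% = Ran loaded with GDP instead of GTP; wells of about 40 µL received 100 nL stock; the first replicate is given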
T cruzi repl: T. cruzi replication inhibition; 300,000 tested, 1.4% active; T. cruzi beta-gal in NIH3T3, luminescence, 90 h; inhibition, % (concentration not given with the values);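 active means mean inhibition across valid replicates above about 55%, limit read from the data; inconclusive means mean below that limit but half or more replicates reach it; inactive means mean below it, under half of replicates reach it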;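 further: signal also drops with host cell toxicity which is not excluded here; 0% = plate median of DMSO wells and 100% = zero luminescence signal; higher percent means less beta-gal luminescence so fewer parasites; stock transfer was 50 nL into about 50 µL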
Calb FLC: affects C. albicans growth with fluconazole; 300,000 tested, 0.57% active; C. albicans CaCi-2 (fluconazole-resistant clinical isolate) + fluconazole, Alamar Blue growth, 48 h; growth inhibition, % (no concentration beside the values);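 active means most replicates above 75%; inconclusive means exactly half above 75%; inactive means most below 75%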;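 further: all wells also contain fluconazole at 8 µg/ml as a sub-toxic cotreatment; 0% = median of DMSO wells and 100% = median of geldanamycin control wells; wells of about 8 µL received 7.5 nL stock; the first replicate is given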
Bfl-1 A1 inh: inhibitors of the anti-apoptotic protein A1, read as caspase activation; AID 2462; 330,000 tested, 0.066% active; caspase activation, % (test concentration not listed); MEF A1-2A-BIM cells, Caspase-Glo 3/7 luminescence, 3 h; percent of clofoctol response, vehicle zero;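 active means over half of replicate activation scores above 10%, or exactly half above 10 with the replicate mean above 10; inconclusive means replicate mean below 10 yet half the replicates above 10; inactive means over half of replicates below 10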;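 further: wells of about 30 µL received 50 nL stock; many hits fall short of the cut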
B2AR ag: activates human beta-2 adrenergic receptor causing internalization. 340,000 tested, 0.43% active. AID 504454. response, % (no concentration beside the values). Am2.2-beta2AR cells, FAP receptor internalization, flow cytometry; reference of the scale not given here;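 active means response above a set limit, near 3 SD of response in nonfluorescent compounds, cut at about 42% in these data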;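 further: stock transfer was 100 nL into about 11 µL; a reference agonist was the positive control; negative values mostly stem from fluorescent compounds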
Target sequence (P07550 whole entry, looked up): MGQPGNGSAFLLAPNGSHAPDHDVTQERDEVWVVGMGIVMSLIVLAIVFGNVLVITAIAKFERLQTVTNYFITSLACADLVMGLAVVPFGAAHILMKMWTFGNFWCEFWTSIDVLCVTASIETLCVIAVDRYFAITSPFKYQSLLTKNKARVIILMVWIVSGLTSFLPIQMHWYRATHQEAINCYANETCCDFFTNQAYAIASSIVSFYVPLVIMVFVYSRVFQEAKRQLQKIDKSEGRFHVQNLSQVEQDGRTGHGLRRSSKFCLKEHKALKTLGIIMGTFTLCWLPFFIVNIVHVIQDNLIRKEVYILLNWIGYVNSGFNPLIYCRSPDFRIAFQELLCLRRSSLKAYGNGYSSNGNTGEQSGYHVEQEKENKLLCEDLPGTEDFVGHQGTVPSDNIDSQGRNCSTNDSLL
Active calls of the source: *; i = inactive; u = inconclusive; x = not tested or not shown.

SMILES	Beta cell apopt	UCH37 DUB inh	LANA-H2A inh	RanGTP-Imp inh	T cruzi repl	Calb FLC	Bfl-1 A1 inh	B2AR ag
CC(=O)c1ccc(NC(=O)CSCCO)cc1	x	3.7	3.8	-1.5	x	-11	-0.5	-5
C=CCSc1nnc(-c2nnc(SCC=C)n2CC)n1CC	x	5.3	2.7	-2.0	6	12	0.3	-10
NC(=O)CC(NC(=O)c1ccccc1)c1ccc(NCCN2CCCCC2)c([N+](=O)[O-])c1 (stereo not given)	2	-3.9	3.5	-3.8	-7	-5	1.0	-3
O=C(N/N=C/c1ccco1)c1cccc([N+](=O)[O-])c1	-5	x	6.0	3.0	-9	-3	-1.3	-1
O=C(NNS(=O)(=O)c1ccc(F)cc1)c1ccc2c(c1)OCO2	-2	4.2	2.1	3.6	-8	-5	0.6	9
O=C(CCN1c2ccccc2Sc2ccccc21)Nc1ccccc1	3	2.6	i	2.2	-6	0	0.1	-3
O=C(NC1CCSC1=O)c1ccc(Oc2cccc(C(F)(F)F)c2)nc1 (stereo not given)	-3	-2.4	0.5	0.1	-11	-1	0.3	3
Cc1nc2cc(F)ccc2n1C1CCN(C(=O)c2ccc(F)cc2F)CC1	5	-1.9	2.7	x	4	6	0.3	-7
CCN1CCN(c2nc3ccccc3nc2C(C#N)C(=O)OCc2ccccc2)CC1 (stereo not given)	5	-3.3	0.2	20*	3	2	-0.1	-6
CC1CCCCN1S(=O)(=O)c1ccc(C(=O)Nc2sccc2C(N)=O)cc1 (stereo not given)	5	-1.4	6.3	-2.2	6	-7	-7.2	19
COc1ccc(/C=C2\SC(=NCc3ccccc3)NC2=O)cc1	-6	0.2	-4.0	4.3	-13	1	-2.0	-8
Cc1ccc(NC(=O)COC(=O)/C=C/c2ccccc2)cc1S(=O)(=O)N1CCOCC1	1	6.0	-1.5	-1.2	-5	-9	0.6	-2
O=C(CNC(=O)c1cccc(Br)c1)N/N=C/c1cc(Br)cc(Br)c1O	-9	x	-1.7	4.3	-14	32	0.5	13
Cc1c(/C=N\NC(=O)c2csc3ccccc23)cnn1C	-6	x	1.4	-2.0	-4	-3	-0.2	3
CCc1c(C)sc(NC(=O)OC)c1C(=O)N1CCOCC1	-4	1.2	1.2	u	-10	-13	0.0	-6
COc1cc(NC(=O)COC(=O)CSc2ccc3ccccc3c2)c(C)cc1[N+](=O)[O-]	-1	x	10*	0.3	-8	0	-0.7	4
O=C(N/N=C/c1ccccn1)c1cc([N+](=O)[O-])cc([N+](=O)[O-])c1	10	x	3.1	0.1	36	-9	-0.2	17
CCN(CC(=O)Nc1c(F)cccc1F)C(=O)c1cccc(S(=O)(=O)N2CCCCCC2)c1	1	-1.3	0.1	x	x	x	-0.1	3
C/C(=N\Nc1nccnc1Cl)c1ccc(F)cc1	0	x	-1.5	-3.3	-5	-11	-6.1	2
N#Cc1ccc(C23CC4CC(CC(C4)C2)C3)[nH]c1=O	0	-7.6	17	u	-2	u	1.0	4
CC(=O)c1cccc(NC(=O)C2CCCN(S(C)(=O)=O)C2)c1 (stereo not given)	-5	0.2	-0.2	-0.1	-2	4	-0.7	6
COc1ccc(CNC(=O)CCCN2C(=O)NC3(CCCC3)C2=O)cc1	-12	-0.1	3.4	x	x	x	0.0	-2
Cc1ccc(SC(C)C(=O)NCCC2=CCCCC2)cc1 (stereo not given)	-2	2.3	-3.6	0.8	25	-7	-1.1	-8
O=C(c1ccc(F)cc1)C1CCN(Cc2ccc(F)cc2)CC1	2	-0.4	3.2	-4.5	-12	0	0.4	-5
CCOC(=O)c1ccc(N2C(=O)CC(N(C)CCc3ccc(OC)c(OC)c3)C2=O)cc1 (stereo not given)	-6	-4.7	4.8	0.6	-9	-2	0.3	-4
O=C(NCC1CCCO1)c1nn2c(C(F)(F)F)cc(-c3cc(Br)cs3)nc2c1Br (stereo not given)	-6	-7.3	-3.4	-1.6	4	13	-0.1	0
COc1c(O)cc2c(c1O)C(=O)CC(c1ccccc1)O2 (stereo not given)	x	8.5	x	-4.9	2	-7	x	x
CN(c1ccc(OCC(=O)N2CCCCC2)cc1)S(=O)(=O)c1cccs1	-4	4.1	2.4	1.1	1	0	1.9	5
COc1ccc(NS(=O)(=O)c2cc(NC(=O)CC(=O)c3ccc([N+](=O)[O-])cc3)ccc2C)cc1	-4	-1.1	5.3	1.7	32	21	-1.1	8
CSCc1ccc(C(=O)N2CCCC(Nc3ccc4c(c3)OCCO4)C2)o1 (stereo not given)	-5	1.1	0.3	0.7	17	-1	0.0	-1
O=C(CCCc1c[nH]c2ccccc12)NCc1ccc2c(c1)OCO2	3	5.1	-4.7	-2.7	-6	u	0.2	3
COC1=CC(=O)C(O)=C(CCCCCCC/C=C/CCCCCCCC2=C(O)C(=O)C=C(OC)C2=O)C1=O	-2	x	7.3	2.9	-3	81*	-0.4	7
Cc1ccc(-c2csc3ncn(CC#N)c(=O)c23)cc1	0	3.2	-1.3	-2.0	-12	31	0.3	-8
Cc1ccc(NC(=O)NCC(c2cccnc2)N2CCOCC2)cc1 (stereo not given)	-8	1.1	-3.7	-2.7	9	-2	0.8	-2
COc1ccc(N(C(=O)Cn2nnc(-c3ccc(Cl)cc3)n2)C(C(=O)NCC2CCCO2)c2ccc(C)cc2)cc1 (stereo not given)	-8	-0.8	-4.2	1.8	36	15	0.5	-1
CCOc1ccc(/C=N/OCC(=O)Nc2cc(S(=O)(=O)N3CCOCC3)ccc2OC)cc1	-6	x	-4.5	-0.8	-10	2	0.3	5
COc1cccc(N2CCN(C(=O)c3ccc(CS(=O)Cc4ccc(Cl)cc4)o3)CC2)c1 (stereo not given)	5	4.4	-8.8	6.3	1	4	-0.8	5
O=C(NCc1ccco1)c1cc2sccc2n1Cc1ccc(F)cc1	-5	0.5	-1.0	2.4	7	-28	-0.2	-1
CC1CCC(=NNC(=O)Cc2ccccc2)CC1 (stereo not given)	-7	1.6	-8.9	1.2	-20	-10	0.4	-7
COC(C[C@@H]1O[C@@H]1C(=O)COCc1ccccc1)OC	x	0.5	x	u	-7	-3	x	4
COC(=O)CC1=C(C(=O)OC)C(c2cccc(OCC(N)=O)c2)C(C#N)=C(N)O1 (stereo not given)	-5	-3.1	0.4	3.7	-9	2	0.4	3
O=C(NNC(=O)c1ccccc1O)c1cc2ccccc2o1	-9	-1.8	2.5	3.6	-6	-1	0.3	2
O=C(COC(=O)c1cccc(O)c1)c1ccccc1	1	3.9	-1.9	x	-5	-1	-8.2	8
O=C(CC1Sc2ccccc2NC1=O)NNC(=O)Nc1ccc(Cl)cc1 (stereo not given)	x	1.2	2.0	3.8	-5	3	0.8	8
Cc1ccc(C2=CSC3=NNC4(CCCCC4)NN23)cc1	0	2.2	1.9	4.5	18	111*	0.5	-36
Cc1ccc(NC(=O)N2CCC(c3nc4c(nnn4Cc4cccc(Cl)c4)c(=O)[nH]3)CC2)cc1	4	0.7	-7.9	-1.4	4	23	-0.4	1
CC(C)C(NS(=O)(=O)c1cccc2nsnc12)C(=O)N1CCn2c1nc1ccccc12 (stereo not given)	-1	6.3	-5.8	0.3	-19	1	0.4	0
O=C(Oc1ccc(NC(=O)c2cc3c(cc2Br)OCO3)cc1)c1ccccc1	5	-1.8	-2.3	-1.0	-2	-6	-3.1	12

Sorted by the number under RanGTP-Imp inh (rising): some entries from above.
Molecule | RanGTP-Imp inh
Cc1ccc(NC(=O)N2CCC(c3nc4c(nnn4Cc4cccc(Cl)c4)c(=O)[nH]3)CC2)cc1 | -1.4
O=C(NCc1ccco1)c1cc2sccc2n1Cc1ccc(F)cc1 | 2.4
COC(=O)CC1=C(C(=O)OC)C(c2cccc(OCC(N)=O)c2)C(C#N)=C(N)O1 (stereo not given) | 3.7

Next section:
SMILES	Beta cell apopt	UCH37 DUB inh	LANA-H2A inh	RanGTP-Imp inh	T cruzi repl	Calb FLC	Bfl-1 A1 inh	B2AR ag
O=C(CSc1nnc2ccccn12)c1ccc2c(c1)OCCO2	-3	4.2	-3.3	-1.0	0	-4	-5.1	5
Cn1cc(SCC(=O)Nc2nc3ccccc3s2)c2ccccc21	-26	0.0	-5.0	1.0	-1	-7	1.3	15
NS(=O)(=O)c1ccc(NC(=S)N2CCN(c3ccccc3)CC2)cc1	-1	-1.5	-1.3	8.9	-13	2	-0.5	9
CCN(c1ccc(C)c(C)c1)S(=O)(=O)c1ccc2c(c1)CCN2C(=O)CCC(=O)O	-1	4.4	6.3	-4.3	12	-5	0.1	12
O=C(Nn1c(SCc2ccc([N+](=O)[O-])cc2)nc2ccccc2c1=O)c1ccc(F)cc1	5	3.0	-1.0	-1.1	20	-25	0.0	0
Cc1ccc(CNC(=O)CCS(=O)(=O)Cc2ccc(C)cc2)cc1	-3	4.1	-6.2	-1.8	-2	-5	0.5	8
Cc1c(C)c2c(OCC(=O)N3CCC(C(=O)NCC(C)C)CC3)cc3c(c2oc1=O)CCC(C)(C)O3	5	-439	2.1	-4.9	10	-6	1.0	-6
C/C(=N\NC(=O)COc1cccc(Cl)c1)c1ccc2c(c1)OCCO2	-5	x	0.5	-0.1	3	-1	0.1	3
CCCn1c(NC(=O)c2ccccc2)nc2ccccc21	19	-0.1	1.9	7.5	16	6	-0.5	-16
CCCNC(=O)c1c(O)c2cccc3c2n(c1=O)CCC3	-3	0.9	0.7	2.3	-13	-9	-0.8	-4
O=C(c1cc2cc(Br)ccc2o1)N1CCCC1	3	3.0	1.2	2.3	-12	u	-2.3	-8
Cc1ccc2[nH]cc(CCNC(=O)Nc3ccccc3)c2c1	-2	3.9	-5.0	0.3	-16	-9	0.5	2
Cc1cc(OCC(=O)NC(C)(C)C)ccc1Cl	-3	3.8	0.6	5.7	-4	5	-0.9	-4
C=CCN1C(=O)CN=C1NCc1ccccc1	-11	8.1	-0.3	1.5	5	-3	0.8	-2
Cc1ccc(Nc2nc3ccccc3o2)cc1F	1	1.5	-2.9	-1.3	x	-4	-7.2	5
COc1ccccc1N1CCN(C(=O)c2sc3nc(-c4ccc(F)cc4)cn3c2C)CC1	6	2.5	1.3	-4.8	7	1	-0.1	1
CC(C)(C(=O)c1ccccc1)/[N+]([O-])=C/c1ccccc1F	-8	2.1	0.6	x	-9	-16	0.1	1
CCC1CCCCN1S(=O)(=O)c1ccc(S(=O)(=O)N(Cc2ccccn2)CC2CCCO2)cc1 (stereo not given)	72	1.2	1.8	2.4	10	1	0.4	2
Cn1c(SCC(=O)N2CC(=O)Nc3ccccc32)nc2ccccc2c1=O	-4	5.7	4.1	x	x	x	0.6	12
Cc1noc(C)c1COC(=O)COc1ccc(C#N)cc1	-1	-0.8	-2.7	8.3	-15	-2	-0.1	6
CCc1nnc(NC(=O)C2COc3ccccc3O2)s1 (stereo not given)	1	-1.1	-0.6	5.9	-11	21	-2.4	-4
O=C(NC(=O)c1cccc(Cl)c1)OC[C@@H]1CCCN2CCCCC12 (stereo not given in full)	-1	6.4	-6.6	-2.0	-12	-10	-0.1	6
COc1ccc(CCNC(=O)c2ccncc2)cc1OC	-4	3.5	-3.3	-1.6	-4	-1	1.4	5
